# Bioassay records (PubChem)
# BJeLR lethal: MLPCN primary cell-based screen for lethality selective to Ras in HRASV12 cells. inhibition, % (no concentration beside the values). AID 1554, 2009. 300,000 compounds, 0.17% hits. BJeLR (HRASV12) viability, CellTiter-Glo ATP luminescence, 48 h; reference of the scale not given here;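 active = replicate mean above 50%; inconclusive = above 50% but judged a plate artefact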;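 also: 50 nL library stock added to about 25 µL; numbers are from one replicate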
# PrP UTR inh: inhibition of PrP 5' UTR reporter expression; cell-based PrP 5' UTR mRNA reporter, plate reader; inhibition, % (concentration not given with the values); 340,000 compounds, 0.35% hits; AID 488862, 2010;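 active = every replicate at 50% or more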;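 also: 0 = median of the neutral control wells; tested in H4 reporter cells; numbers are from one replicate; inactives centre near -14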
# Bead autofluor: compound fluorescence in toxin protease inhibitor counterscreen | fluorescence intensity (concentration not given with the values) | 360,000 compounds, 3.1% hits | compound autofluorescence counterscreen, microsphere flow cytometry; hits give high values;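 active = at least 3 SD above the mean of all compounds, about 16000 in these data; inconclusive = too few beads counted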;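 also: 100 nL of 1 mM stock went into each well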
# Mtb hypoxia rep: PubChem AID 1159583; M. tuberculosis hypoxia-regulated fluorescent reporter, fluorescence; fluorescence inhibition, % (test concentration not listed); 300,000 compounds, 0.1% hits;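 active = 35 to 45% if threefold the growth effect, above 45% if 1.5-fold the growth effect; inactive = the rest, general growth blockers included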;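 also: wells of about 50 µL received 100 nL stock; 0% = vehicle wells and 100% = reference inhibitor wells; whole bacteria with a GFP reporter of the hypoxia response; strong numbers were not always called active; many hits fall short of the cut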
# Sa RN4220 lethal: growth inhibition of S. aureus RN4220, primary screen, OD600; 16 h; inhibition, % (test concentration not listed); 330,000 compounds, 0.33% hits; AID 1259311, 2017;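 active = z-score of -3 or lower and OD600 up to 0.18 on both plates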;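 also: plate controls were untreated cells for no effect and reference antibiotic for full effect; stock transfer was 100 nL into about 80 µL; one replicate is shown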
# Sa ugtP lethal: growth inhibition of ugtP-null S. aureus, primary screen, RN4220 ugtP deletion, OD600; 330,000 compounds, 0.54% hits; AID 1259309, 2017; 16 h; some inactives read as strong as hits; growth inhibition, % (test concentration not listed);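 active = z-score under -3 and OD600 up to 0.15 on both plates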;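 also: plate controls were untreated wells for no effect and antibiotic for full effect; wells of about 80 µL received 100 nL stock; the first replicate is given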
# Mtb hypoxia rep growth: further read-out of Mtb hypoxia rep, marked with its call; growth inhibition, %; measured here: M. tuberculosis growth (absorbance);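 0% = vehicle and 100% = reference antibiotic; read after six days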
# * marks the source's active call; other numbers are inactive results; ? = inconclusive; nt = no result given; & = joins results of further samples.
compound	BJeLR lethal	PrP UTR inh	Bead autofluor	Mtb hypoxia rep	Mtb hypoxia rep growth	Sa RN4220 lethal	Sa ugtP lethal
O=C(c1ccccc1Cl)N(Cc1ccc(Br)cc1)N1C(=O)CCCC1=O	6	-14	5037	14	8	3.7	8
COc1ccc(-c2ccc3oc(-c4ccsc4)cc(=O)c3c2)cn1	nt	-22	2818	16	10	13	10
CC(OC(=O)c1cc(S(=O)(=O)Nc2ccc(F)cc2)ccc1Cl)C(=O)Nc1ccc2c(c1)OCCO2 (stereo unspecified)	-5	-32	2161	12	6	2.7	-3
CC(C)C(=O)OCC(=O)NCc1ccccc1Cl	2	-10	4069	2	7	-3.3	1
O=C(c1ccccc1)N1CCN(C2CCCCCC2)CC1	-5	-18	2174	nt	nt	4.0	1
CCOc1cc2[nH]c(=S)n(CCCC(=O)NCc3ccco3)c(=O)c2cc1OCC	-9	-10	8289	3	6	5.1	-1
CCOc1ccc(NC(=S)N(Cc2ccc(Cl)cc2)Cc2ccco2)cc1	-1	-34	10985	5	12	-4.5	13
COc1cc(OC)cc(C(=O)Nc2cc(NC(=O)c3ccco3)ccc2OC)c1	-7	-7	4406	-3	7	0.1	-13
Cc1[nH]c2ccc(C(=O)N3CCN(c4cccc(Cl)c4)CC3)cc2c1C	9	-4	5023	-18	-10	-3.5	-29
COC(=O)c1cc(-c2ccccc2)n[nH]1	2	-24	3833	6	6	7.2	-2
COC(=O)CC1C(=O)NCCN1C(=O)CSc1nc2ccccc2s1 (stereo unspecified)	-8	-16	3874	9	11	12	-65
O=C(Nc1cccc(N2CCCC2)c1)c1cccs1	4	-31	6153	-4	-1	-1.1	-17
CN1Cc2c(N)cccc2C(c2ccccc2)C1 (stereo unspecified)	-8	-22&7	5338&7291	8	0	5.7	-4
CC(=O)N1CCN(C(=O)C2(NC(=O)Nc3cccc(F)c3)CCCCC2)CC1	-8	-14	3086	16	2	2.6	1
O=c1[nH]c(Cc2cccs2)nc2ccccc12	5	nt	8942	-1	6	3.9	-3
CC(C)C(=O)Nc1ccccc1Cc1ccccc1	0	-9	3507	-3	-5	6.8	-4
CCN(CC)C1=CC(=O)OC12CCCCC2	0	-34	22472*	9	16	6.6	-1
NC(=O)C1CCN(CC(O)CSc2ccc(F)cc2)CC1 (stereo unspecified)	0	-47	3523	16	8	4.5	2
Cc1ccc(N=C2SCCCN2C(=O)c2cccc(N3C(=O)CCC3=O)c2)cc1Cl	-2	-12	nt	-2	0	3.7	4
O=C(Nc1c2c(nn1-c1ccc(F)cc1)CS(=O)(=O)C2)C12CC3CC(CC(C3)C1)C2	-3	-4	24380*	-7	-2	-0.2	-4
COc1ccccc1OCC(=O)Nc1ccc(-c2nnc(-c3ccco3)o2)cc1	17	-24	4806	-5	6	-2.3	2
COc1ccc(CCN2C(=O)CC(Cc3cccc(C)c3)C2=O)cc1OC (stereo unspecified)	1	-23	4210	9	10	3.1	2
COC(=O)c1c(NC(=O)CN2CCN(c3cccc(Cl)c3)CC2)sc(C)c1C	-10	10	6685	5	5	0.8	12
C#CCOCCOCCOCCNc1nc(N2CCN(C(=O)C(CCC(=O)O)n3cc(C(N)Cc4ccc(O)cc4)nn3)CC2)nc(N2CCN(C(=O)C(CCCCN)n3cc(C(N)C(C)CC)nn3)CC2)n1 (stereo unspecified)	nt	nt	nt	5	16	7.4	-1

# 13 structures already listed, sorted by length of the SMILES, lowest first:
compound	BJeLR lethal	PrP UTR inh	Bead autofluor	Mtb hypoxia rep	Mtb hypoxia rep growth	Sa RN4220 lethal	Sa ugtP lethal
CCN(CC)C1=CC(=O)OC12CCCCC2	0	-34	22472*	9	16	6.6	-1
COC(=O)c1cc(-c2ccccc2)n[nH]1	2	-24	3833	6	6	7.2	-2
O=c1[nH]c(Cc2cccs2)nc2ccccc12	5	nt	8942	-1	6	3.9	-3
O=C(Nc1cccc(N2CCCC2)c1)c1cccs1	4	-31	6153	-4	-1	-1.1	-17
NC(=O)C1CCN(CC(O)CSc2ccc(F)cc2)CC1 (stereo unspecified)	0	-47	3523	16	8	4.5	2
COC(=O)CC1C(=O)NCCN1C(=O)CSc1nc2ccccc2s1 (stereo unspecified)	-8	-16	3874	9	11	12	-65
CCOc1ccc(NC(=S)N(Cc2ccc(Cl)cc2)Cc2ccco2)cc1	-1	-34	10985	5	12	-4.5	13
COc1ccccc1OCC(=O)Nc1ccc(-c2nnc(-c3ccco3)o2)cc1	17	-24	4806	-5	6	-2.3	2
Cc1[nH]c2ccc(C(=O)N3CCN(c4cccc(Cl)c4)CC3)cc2c1C	9	-4	5023	-18	-10	-3.5	-29
CC(=O)N1CCN(C(=O)C2(NC(=O)Nc3cccc(F)c3)CCCCC2)CC1	-8	-14	3086	16	2	2.6	1
Cc1ccc(N=C2SCCCN2C(=O)c2cccc(N3C(=O)CCC3=O)c2)cc1Cl	-2	-12	nt	-2	0	3.7	4
O=C(Nc1c2c(nn1-c1ccc(F)cc1)CS(=O)(=O)C2)C12CC3CC(CC(C3)C1)C2	-3	-4	24380*	-7	-2	-0.2	-4
C#CCOCCOCCOCCNc1nc(N2CCN(C(=O)C(CCC(=O)O)n3cc(C(N)Cc4ccc(O)cc4)nn3)CC2)nc(N2CCN(C(=O)C(CCCCN)n3cc(C(N)C(C)CC)nn3)CC2)n1 (stereo unspecified)	nt	nt	nt	5	16	7.4	-1

# New compounds follow:
compound	BJeLR lethal	PrP UTR inh	Bead autofluor	Mtb hypoxia rep	Mtb hypoxia rep growth	Sa RN4220 lethal	Sa ugtP lethal
COc1ccccc1Nc1ncc(C(=O)N2CCN(Cc3ccc(OC)c(OC)c3OC)CC2)c2ccccc12	-5	-13	3278	-19	-3	0.4	4
CN(C(=O)c1cccc(C(F)(F)F)c1)C1CCCc2ccccc21 (stereo unspecified)	10	-89	5252	8	-1	5.0	-4
CCN(Cc1nc(-c2ccc(OC)c(OC)c2)no1)C(=O)c1ccoc1C	-15	-21	4094	9	2	-0.2	2
CC(C)Oc1cccc(C(=O)C2CCCN(C(=O)c3cncs3)C2)c1 (stereo unspecified)	1	-3	4360	14	3	1.1	2
COc1ccccc1CN1CC(C(=O)N(Cc2cnn(C)c2)C(C)C)CCC1=O (stereo unspecified)	-4	-23	5136	6	3	1.5	2
COc1ccc(C(=O)Cn2cnc3ccccc3c2=O)c(OC)c1	-3	-40	?	4	14	2.7	5
O=C(c1cccc([N+](=O)[O-])c1)N1CCN(c2ncccn2)CC1	-2	-18	3222	13	13	0.9	2
Cc1c(C(=O)N2CCCC2)nnn1-c1nonc1N	-1	-31	8265	10	5	0.2	-5
CCCn1nc(C(=O)NC2CCCc3ccccc32)c2ccccc2c1=O (stereo unspecified)	4	-27	7021	7	11	-4.8	3
N#Cc1ccccc1S(=O)(=O)N1CCN(C(=O)C2CCCC2)CC1	8	nt	3695	-5	2	-1.8	12
O=C(Nc1nc2ccccc2[nH]1)c1ccc(S(=O)(=O)N2CCOCC2)cc1	7	-15	3493	-1	4	5.4	0
Cc1ccc(-c2nn3c(-c4ccco4)nnc3c3ccccc23)cc1S(=O)(=O)NCC1CCCO1 (stereo unspecified)	-8	-11	4502	0	-1	-2.5	4
O=C(NCc1ccc(F)cc1)c1cc(S(=O)(=O)N2CCCCC2)c[nH]1	12	-20	5836	16	8	2.7	11
CCC(C)Cn1c(C(C)O)nc2ccccc21 (stereo unspecified)	19	-5	3309	nt	nt	-1.8	2
CC(=O)c1ccc(S(=O)(=O)N2CCCC2)cc1	-8	-13	8098	5	7	-0.8	6
CCS(=O)(=O)Nc1cccc(-c2nc3cccnc3s2)c1C	7	-23	7058	0	13	-13	-5
COc1ccc(Br)cc1CNc1ccc(S(N)(=O)=O)cc1	-8	-6	2078	5	3	0.9	3
COC(=O)C1=C(C)N(CC2CC2)C(=NCc2cc(OC)c(OC)c(OC)c2)NC1c1ccccc1 (stereo unspecified)	nt	nt	nt	3	11	2.7	2
N#Cc1ccccc1S(=O)(=O)N1CCN(c2nc(-c3cccnc3)nc3ccccc23)CC1	nt	-6	nt	-3	5	-4.0	-14
O=C(C(=Cc1ccccc1)c1ccccc1)N1CCCCC1	nt	nt	nt	14	15	8.6	13
CCc1ccc(S(=O)(=O)NCC(O)COc2ccc(OC)cc2)cc1 (stereo unspecified)	-2	nt	6313	-5	-10	1.7	3
Cc1[nH]c2ccc(F)cc2c1CCN1C(=O)OC(C)(C)C1(C)O (stereo unspecified)	6	-15	15476	20	16	3.7	5
CC(=O)Nc1ccc(S(=O)(=O)N2CCC(n3cnc4cc(F)ccc43)CC2)cc1	-2	-8	4066	-1	10	0.9	2
Cc1ccc(CNC(=O)c2ccc(Br)o2)cc1	-2	-35	5929	nt	nt	3.6	-1

# Structural class, the compounds so far with an aryl thioether with sulfur outside any ring
compound	BJeLR lethal	PrP UTR inh	Bead autofluor	Mtb hypoxia rep	Mtb hypoxia rep growth	Sa RN4220 lethal	Sa ugtP lethal
COC(=O)CC1C(=O)NCCN1C(=O)CSc1nc2ccccc2s1 (stereo unspecified)	-8	-16	3874	9	11	12	-65
NC(=O)C1CCN(CC(O)CSc2ccc(F)cc2)CC1 (stereo unspecified)	0	-47	3523	16	8	4.5	2

# Continued.
compound	BJeLR lethal	PrP UTR inh	Bead autofluor	Mtb hypoxia rep	Mtb hypoxia rep growth	Sa RN4220 lethal	Sa ugtP lethal
CCCN1CCN(CCCNC(=O)CN2C(=O)COc3ccccc32)CC1	7	-12	11421	2	-2	3.6	3
CC1=NN2C(=N)/C(=C\c3cc(C)n(-c4ccc(C)cc4)c3C)C(=O)N=C2S1	7	-3	3658	-10	3	-4.1	-26
COc1ccc(C(C(O)C(=O)c2c[nH]c3ccccc23)N2CCN(c3ccccc3)CC2)cc1 (stereo unspecified)	1	2	3004	nt	nt	nt	nt
COc1ccc(/C=N/Nc2ncnc3sc(C)c(C)c23)cc1	0	-32	2013	nt	nt	nt	nt
CC(NC(=O)c1nc[nH]c1C(=O)NC(CCCCN)C(=O)OC(C)(C)C)C(=O)OC(C)(C)C (stereo unspecified)	nt	nt	nt	6	2	3.3	4
Cn1c(-c2ccc(Br)o2)nc2cc(Br)ccc21	nt	-103	4757	nt	nt	7.5	6
CCCCNC(=O)CN1C(=O)NC(CCc2ccccc2)C1=O (stereo unspecified)	-7	-32	6405	7	2	3.2	6
COc1cccc(N=Nc2c(=O)[nH]n3c(=O)cc(C)[nH]c23)c1	3	-4	3376	0	-10	19	14
c1ccc(CSc2nnc([C@@H]3CCCN3)o2)cc1	4	-61	9728	16	14	2.8	4
O=C(O)/C=C/c1ccc(Oc2ncccn2)cc1	-15	-19	4561	1	-6	-1.4	-1
O=c1oc2ccccc2nc1C=C(O)/C=C/c1ccc(F)cc1	nt	nt	nt	nt	nt	0.1	-2
Cc1ccc(NN=C2c3ccccc3-c3ccccc32)cc1	-4	-30	2541	-2	6	-9.8	32
N#Cc1cc2c([nH]c1=O)CCCC2	9	8	5814	-4	3	2.3	8
Cc1ccc2nc(-c3ccc(SCC(=O)O)nc3)[nH]c2c1	10	10	3824	nt	nt	8.0	8
COC(=O)C1=C(Nc2ccc(C)cc2)C=C(C)C(C(=O)OC)C1c1ccc(OC)cc1 (stereo unspecified)	3	-18	6441	3	-1	-9.4	4
COc1ccc(C(=O)NNC(=O)C(NC(=O)c2ccccc2NC(=O)c2ccco2)C(C)C)cc1 (stereo unspecified)	-2	-20	2689	-1	10	1.4	10
CCN1C(=O)C(O)(CC(=O)C(C)(C)C)c2cc(Br)ccc21 (stereo unspecified)	-15	-17	2123	0	-7	6.3	8
COc1ccc(-n2c(SCC(=O)O)nc3sc4c(c3c2=O)CCCC4)cc1	-11	10	3418	3	-8	2.4	7
O=C1Nc2ccc3sc4ccccc4c3c2C1=O	0	-18	nt	-2	9	5.8	4
CC(C)CCNC(=O)C1C2C=CC3(CN(Cc4ccccc4Cl)C(=O)C13)O2 (stereo unspecified)	3	9	5536	-1	2	-0.5	-7
COc1cccc(OC)c1C(=O)Nc1ccc(CN2CCOCC2)cc1	-13	9	4889	nt	nt	1.7	-2
COC(=O)CNC(c1ccccc1)c1cc(Br)ccc1NC(C)=O (stereo unspecified)	-1	-55	4384	10	10	4.6	13
